Screening results: PubChem BioAssay, National Center for Advancing Translational Sciences (NCATS)
GLA inh pH 4.5: blocks human alpha-galactosidase A at pH 4.5; P06280; purified enzyme, 4-MU-alpha-Gal fluorescence, pH 4.5; activity change, negative = inhibition, % at 105 µM; 230,000 tested, under 10 active; AID 1467; inconclusive = small, poorly fitted or top-dose-only inhibition, or a rising curve; inactive = flat fitted curve, though single readings scatter; no compound was filed as active;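 also: 0% = full activity with enzyme and -100% = basal without enzyme; dose as in the result columns while the protocol names 77 µM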
Target sequence (P06280 whole entry, looked up): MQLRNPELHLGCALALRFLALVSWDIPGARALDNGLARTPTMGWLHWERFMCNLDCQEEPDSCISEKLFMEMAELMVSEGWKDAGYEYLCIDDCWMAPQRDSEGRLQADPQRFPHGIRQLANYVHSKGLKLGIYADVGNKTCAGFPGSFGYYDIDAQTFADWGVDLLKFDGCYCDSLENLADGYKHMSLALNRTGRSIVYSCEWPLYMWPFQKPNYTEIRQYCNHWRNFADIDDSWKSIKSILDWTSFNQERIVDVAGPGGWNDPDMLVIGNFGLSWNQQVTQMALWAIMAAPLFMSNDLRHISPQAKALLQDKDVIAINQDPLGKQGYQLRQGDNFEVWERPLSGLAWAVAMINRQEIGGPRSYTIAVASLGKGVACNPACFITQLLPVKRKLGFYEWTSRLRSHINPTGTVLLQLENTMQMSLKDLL
miR-21 reporter: miR-21 reporter, rising signal | HeLa miR-21 FLuc reporter, luciferase, 48 h | Potency, µM (titrated, usually from 38.3 µM), without a hit: top-dose reporter change, positive = more light | 340,000 tested, under 10 active | AID 2288; active = well fitted rising curve with a large enough effect; inconclusive = small, poorly fitted or top-dose-only effect; inactive = no such curve, though single readings can be large or run the other way;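 also: % of control where 0% means no effect; miR-21 action dims this reporter so a rising signal means less miR-21 action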
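Compounds were titrated across several concentrations (up to approximately 40 uM) and incubated 48 hours with HeLa miR-21-FLuc reporter cells (miR-21 target sequence downstream of FLuc, endogenous miR-21). Readout was firefly luciferase luminescence after lytic detection reagent.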
Rango dissoc inh: inhibition of RanGTP-driven Rango-importin beta dissociation; hit rate 0.071% among 340,000; Biochemical FRET Rango-importin beta, RanGTP-induced dissociation; Potency, µM (highest dose often 46.1 µM), for the others: top-dose activity change, negative = inhibition; O95149+P62826; AID 540253; active means falling FRET ratio curve, often poorly fitted, with flat reads before Ran was added; inconclusive means other falling curves, or compound fluorescence or quenching; inactive means flat or rising ratio curve;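 also: potency is read from the fitted curve at half-maximal effect; % of control where 0% means no effect; nearly all actives have a fitted effect of over 45% in size; -100% = wells without RanGTP and RCC1; the record marks most hits as doubtful in a second field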
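Quantitative HTS using a FRET biosensor: 0.1 uM Rango, 0.25 uM importin beta, 0.6 uM Ran, 2 mM GTP, 0.2 uM RCC1 final, PBS with DTT, Tween-20 and BSA. Post-read taken 45 min after Ran addition.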
Rango complex inh: inhibitors of Rango-importin beta complex formation | Q14974 | Rango CFP/YFP FRET sensor + importin beta, 45 min | Potency, µM (series often up to 92.2 µM), for inactives: at the highest dose inhibition of complex formation | hit rate 0.031% among 340,000 | AID 540263; active = rising FRET ratio curve, often small or poorly fitted; inconclusive = mostly compound fluorescence or quenching in the first reads; inactive = flat curves in all reads;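 also: potency is read from the fitted curve at half-maximal effect; 0% = DMSO wells and 100% = buffer wells lacking importin beta; nearly all actives have a fitted effect of over 15% in size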
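FRET biosensor Rango (snurportin 1 IBB between N-terminal EYFP and C-terminal Cerulean), 50 nM in PBS/1 mM DTT/0.02% Tween-20/0.1% BSA, preincubated 5 min RT with compound; 0.125 microM importin beta added, 45 min RT, CFP/YFP FRET ratio read.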
Starred values were filed as active, the others as inactive; ? = inconclusive; nt = not tested or not shown. Not all compounds are listed (hit frequency here may not be typical).

The line under a structure holds: GLA inh pH 4.5	miR-21 reporter	Rango dissoc inh	Rango complex inh
> CCN1C(=O)N/C(=C/c2ccc(Sc3ccc(C)cc3)o2)C1=O
  8	-6%	?	?
> COCc1cc(C)nc(OCC(=O)N/N=C/c2cccc(OC)c2)c1C#N
  4	1%	-3%	0.9%
> Cn1c(=O)c2c(nc(N3CCCCCC3)n2CC(O)COc2ccccc2)n(C)c1=O (stereo not drawn)
  -5	-2%	16%	-1.9%
> CS(=O)(=O)Nc1ccc(C2=NN(S(C)(=O)=O)C(c3ccccc3)C2)cc1 (stereo not drawn)
  5	-42%	1%	-1.4%
> O=C(COc1ccccc1)NCCc1cn2ccsc2n1
  -6	-9%	?	-0.1%
> COC(=O)c1cn(Cc2ccccn2)c(=O)c2ccccc12
  4	-1%	29%	0.4%
> CN1CCN(C(=O)c2ccc(C3SCC(=O)N3Cc3ccco3)cc2)CC1 (stereo not drawn)
  -22	1%	-4%	1.5%
> COCCN(CC(=O)NC1CCCCC1)C(=O)CCCC(=O)Nc1ccccn1
  2	-2%	-13%	-0.3%
> CC(NC(=O)C(=O)N1CCOCC1)C(c1cccs1)N1CCN(c2ccccc2)CC1 (stereo not drawn)
  nt	1%	2%	3.1%
> O=C(Nc1ccc2c(c1)OCO2)Nc1ccc2c(c1)OCO2
  -22	-48%	-17%	1.1%
> CCOC(=O)N1CCN(Cc2cc(=O)oc3cc4c(cc23)CCC4)CC1
  -2	-1%	0%	?
> CC(C)C(=O)Nc1cccc(N2CCN(CCCN3C(=O)C4CCCCN4C3=O)CC2)c1 (stereo not drawn)
  nt	nt	0%	0.7%
> NS(=O)(=O)c1ccc(NC(=O)COC(=O)CCCN2C(=O)c3cccc4cccc(c34)C2=O)cc1
  nt	nt	-11%	-5.8%
> CC(=O)Nc1ccccc1-c1nc2ccccc2nc1OCC(=O)c1ccc(Cl)cc1
  0	1%	-8%	-0.3%
> O=C(c1ccc(Br)cc1)N1CCN(Cc2ccccc2)CC1
  nt	-2%	0%	-1.1%
> COc1cccc(CNC(=O)c2cc(S(=O)(=O)N3CCCC3)cn2C)c1
  nt	3%	1%	?
> CC(C)(C)c1ccc(C(=O)N/C(=C/c2cccs2)C(=O)NCc2ccco2)cc1
  ?	20%	0%	6.6%
> C=CCN1C=CC(=CC=C(C#N)C#N)C=C1
  -22	-16%	?	?
> O=C(Cc1cccc(C(F)(F)F)c1)N1CCCC1
  nt	-2%	-1%	0.2%
> CC(C)C(NC(=O)OCc1ccccc1)C(=O)NC1CCCCC1 (stereo not drawn)
  5	0%	1%	-2.3%
> Cc1cc(-c2ccccc2)nc(N/N=C/c2ccco2)n1
  -4	-19%	-12%	3.9%
> CCOC(=O)c1c(C)c(C(=O)NCCN2CCOCC2)c(C)n1CC
  2	-5%	?	4.5%
> N#Cc1c(Nc2ccccc2)[n+]([O-])c2ccc(Cl)cc2[n+]1[O-]
  nt	nt	-7%	-0.9%
> Cc1ccc(-c2cc3nc(-c4ccccc4)cc(N)n3n2)cc1
  6	-43%	-1%	0.5%
> CCc1ccc(C2CC(c3ccc(C)cc3)Nc3nc(N)nn32)cc1 (stereo not drawn)
  4	-15%	20%	1.6%
> N#CCCN(Cc1cccnc1)C(=O)c1sc2cc(F)ccc2c1Cl
  4	-6%	-21%	0.1%
> COc1ccc(NC(=O)CN2CCN(S(=O)(=O)c3ccc(Cl)cc3)CC2)cc1
  -1	-4%	1%	2.0%
> COc1ccccc1CNC(=O)CNCC1CCCO1 (stereo not drawn)
  -1	-3%	-13%	-0.6%
> O=C(CCc1nnc(C2CCCCC2)o1)NCc1ccc(F)c(F)c1
  4	-3%	3%	0.4%
> CCOc1ccc(S(=O)(=O)N2CCCC(C(=O)NCc3ccco3)C2)cc1 (stereo not drawn)
  nt	0%	1%	5.7%
> O=C(CSC1=NCCS1)Nc1ccc(S(=O)(=O)N2CCCCCC2)cc1
  -6	-1%	-6%	-0.1%
> CCc1ccc(N2CCN(C(=O)c3ccc4c(c3)OCO4)CC2)cc1
  nt	-8%	1%	0.1%
> COc1cc(C2c3c(oc4ccc(Cl)cc4c3=O)C(=O)N2Cc2ccco2)cc(OC)c1OC (stereo not drawn)
  10	0%	nt	nt
> O=C(c1ccc(Br)s1)N1CCN(S(=O)(=O)c2ccccc2)CC1
  nt	2%	-11%	-0.5%
> COc1ccc(CN(C(C)=O)c2ccccc2C(=O)O)cc1
  7	-2%	20%	-0.2%
> COc1ccc(OC)c(-c2cc(C(=O)N3CCN(c4ncccn4)CC3)c3ccccc3n2)c1
  -16	15%	-16%	?
> CC(=O)Nc1ccc(OCC(=O)NC(C)C(C)C)cc1 (stereo not drawn)
  3	-2%	0%	0.7%
> O=C(O)C1CCN(S(=O)(=O)c2cccs2)CC1
  nt	-4%	-8%	0.6%
> CN(C(=O)c1ccc(NC(=O)Cc2cccc(NC(=O)C3CCCN(C(=O)CCc4ccccc4)C3)c2)cc1)C1CCCC1 (stereo not drawn)
  nt	nt	-2%	-0.1%
> COc1ccc([N+](=O)[O-])c(OC)c1C(=O)NC(=O)Nc1nc(C)cc(C)n1
  -4	0%	-6%	0.7%
> COc1ccc(Cc2nc3ccc(C(=O)NC4CCOC4)cc3o2)cc1 (stereo not drawn)
  nt	-1%	1%	2.8%
> O=C(C1CCN(S(=O)(=O)N2CCOCC2)CC1)N1CCN(Cc2ccccc2)CC1
  6	-2%	-6%	4.2%
> CC(C)CC(c1nnnn1C(C)C)N1CCN(c2ccccc2)CC1 (stereo not drawn)
  -13	1%	-5%	-0.5%
> Cc1nc2ccccn2c1C(=O)N/N=C/c1cc(C)n(-c2ccc(Br)cc2)c1C
  -1	-7%	-8%	-2.4%
> CCC(=O)Nc1ccccc1N1CCN(S(C)(=O)=O)CC1
  -8	0%	1%	1.5%
> COc1cccc(NC(=O)C2CCC2)c1
  nt	nt	-14%	-3.3%
> COc1ccc(NC(=O)c2cccc(NC(=O)c3ccco3)c2)c(OC)c1
  2	-5%	3%	-0.8%
> Cc1nc(N)ncc1-c1ccc2c(c1)OCO2
  nt	-39%	4%	-2.8%
> O=C(O)c1ccc(Cl)c(S(=O)(=O)N(Cc2ccccc2)c2ccccc2)c1
  nt	3%	2%	-2.7%
> CCO[C@@H]1OC(C(=O)NC2CC2)=C[C@H](c2ccccc2)[C@H]1CCCO
  -4	0%	2%	-4.4%
> C=CCc1c(C)nc(SCc2nc3ccccc3c(=O)[nH]2)[nH]c1=O
  -8	-13%	-6%	6.6%
> N#Cc1c(-c2ccccc2)nc(-c2cccnc2)[nH]c1=O
  nt	-1%	17%	3.1%
> CCc1ccccc1NC(=O)N1C2CCCC1CC(NC(C)=O)C2 (stereo not drawn)
  -9	2%	1%	-2.9%
> O=C(Nc1ccc2oc(-c3ccncc3)nc2c1)c1ccc([N+](=O)[O-])o1
  nt	-15%	-9%	-1.6%
> Cc1occc1C(=O)Nc1sc2c(c1C(N)=O)CCC(C(C)(C)C)C2 (stereo not drawn)
  7	-12%	4%	2.0%
> O=S1(=O)c2ccccc2N=NN1Cc1ccc(Cl)c(Cl)c1
  -18	-11%	nt	nt
> COC(=O)CSc1ncnc2c1cnn2Cc1ccccc1
  -9	1%	1%	?
> c1ccn(-c2ccc(N3CCOCC3)cc2)c1
  -1	-34%	0%	-0.7%
> O=[N+]([O-])c1cccc(/C=C/c2nc3ccc([N+](=O)[O-])cc3[nH]2)c1
  -1	-18%	-1%	2.6%
> CN1C(C(=O)NCc2cccc(C(F)(F)F)c2)CC2Cn3c(nc4cc5ccccc5cc43)C21 (stereo not drawn)
  -14	23%	1%	2.6%

Among those listed so far, these have bromine:
The line under a structure holds: GLA inh pH 4.5	miR-21 reporter	Rango dissoc inh	Rango complex inh
> O=C(c1ccc(Br)cc1)N1CCN(Cc2ccccc2)CC1
  nt	-2%	0%	-1.1%
> O=C(c1ccc(Br)s1)N1CCN(S(=O)(=O)c2ccccc2)CC1
  nt	2%	-11%	-0.5%
> Cc1nc2ccccn2c1C(=O)N/N=C/c1cc(C)n(-c2ccc(Br)cc2)c1C
  -1	-7%	-8%	-2.4%

(further entries)
The line under a structure holds: GLA inh pH 4.5	miR-21 reporter	Rango dissoc inh	Rango complex inh
> CCN1CCC(=NNC(=O)c2ccco2)CC1
  1	-31%	17%	-1.9%
> Cc1ccc(-c2nn(-c3ccccc3)cc2CSC(=N)N)cc1
  -6	?	4%	-2.1%
> O=C(O)CN1CCN(Cc2ccccc2Cl)C1=O
  1	-2%	-18%	-1.5%
> CCOC(=O)N1CCN(C(=O)CN(C2CCCCC2)S(=O)(=O)c2ccc(F)cc2)CC1
  5	-2%	7%	2.2%
> COC(=O)CN1C(=S)N(C)C(=O)C1CC(=O)Nc1ccccc1 (stereo not drawn)
  -1	0%	0%	2.7%
> COc1cccc(NC(=S)Nc2cccc3ccccc23)c1
  nt	-51%	8%	0.0%
> CC(=O)c1cccc(N(CC(=O)N2CCCC2)S(C)(=O)=O)c1
  5	-2%	3%	-0.5%
> COC(=O)[C@@]12CCCN1[C@H](c1ccc(-c3ccc(Cl)c(Cl)c3)c(OC)c1)[C@H]1C(=O)N(C)C(=O)[C@H]12
  nt	nt	16%	-1.6%
> CC(C(=O)NC1CCCc2ccccc21)N1CCN(c2ccc(F)cc2)CC1 (stereo not drawn)
  -9	-1%	-4%	-0.1%
> Cc1cccc(NC(=O)CSc2nnc(CNC(=O)c3ccco3)o2)c1C
  nt	2%	3%	-0.7%
> CCS(=O)(=O)N1CCN(C(=O)c2cccc(OC)c2)CC1
  -8	0%	5%	-0.5%
> COc1ccc(NC(=O)CS(=O)c2ccccc2Cl)cc1 (stereo not drawn)
  nt	-27%	-5%	-0.5%
> COc1ccc(Cc2nnc(NS(=O)(=O)c3ccc([N+](=O)[O-])cc3)s2)cc1
  nt	-4%	3%	1.1%
> CCCCCCCOc1ccc(OC(=O)c2cccnc2)cc1
  -11	-6%	-6%	-0.2%
> O=C(NN1CCOCC1)c1cccc(COc2cccc(Br)c2)c1
  -3	-24%	7%	-1.7%
> CC(C)Oc1ccc(S(=O)(=O)N2CCOCC2)cc1NC(=O)CN1C(=O)NC2(CCCC2)C1=O
  nt	0%	0%	4.2%
> COc1cccc(C(=O)N(Cc2ccc(N(C)C)cc2)C2CCS(=O)(=O)C2)c1 (stereo not drawn)
  -4	-2%	-5%	0.9%
> CC(=O)c1ccc(N2CCN(C(=O)c3ccccc3SCC(=O)NCc3ccco3)CC2)c(F)c1
  nt	nt	-2%	?
> Cc1nc(-c2ccccn2)sc1C(=O)O
  0	-21%	-6%	0.6%
> Cc1cc(C(=O)NCc2ccc(S(N)(=O)=O)cc2)ccc1[N+](=O)[O-]
  -4	-7%	-6%	-0.7%
> CCOC(=O)N1CCN(C(=O)CSc2ccc(-c3cccc(OC)c3)nn2)CC1
  1	4%	-3%	0.5%
> CCn1c(=O)n(CC)c2cc(N3CCCC3)c(NC(=O)c3ccccc3F)cc21
  nt	-1%	8%	1.4%
> O=C(CN1C(=O)CSC1=O)Nc1ccc(C(=O)O)cc1
  4	-1%	1%	2.9%
> Cc1onc(-c2c(F)cccc2Cl)c1C(=O)Nc1nc2ccccc2[nH]1
  1	17%	12%	1.0%
> CC(C)(O)C#Cc1ccc(CN2CCC(n3nccc3NC(=O)C3CC3)CC2)cc1
  nt	0%	?	?
> Cc1[nH]n(-c2cccc(Cl)c2)c(=O)c1/C=N/n1c(C)nc2ccccc2c1=O
  7	-1%	-7%	-0.3%
> COCCn1c(=O)[nH]c2cc(C(=O)NCCN3CCN(c4ccccc4F)CC3)ccc2c1=O
  28	1%	-11%	0.5%
> O=C(Nc1ccc2[nH]ccc2c1)c1ccc(F)cc1
  -12	20%	-2%	-1.5%
> O=C(COc1ccc(Br)cc1)NCCCN1CCCC1=O
  nt	nt	-1%	-1.2%
> O=C(CCNC(=O)c1ccccc1Cl)Nc1ccc(S(=O)(=O)Nc2nccs2)cc1
  nt	nt	-34%	-0.2%
